Screening data from PubChem.
AmpC nodet inh = inhibitors of E. coli AmpC beta-lactamase without detergent; AmpC nitrocefin hydrolysis, absorbance 480 nm, no detergent; potencies from a single point are estimates; Potency, µM (doses to about 28.7 µM), for the others: at the highest dose activity change, negative = inhibition; hit rate 1.8% among 71,000; active = falling curve, for most hits resting on a single point; inconclusive = weak or doubtful change; inactive = flat or rising curve; note: % of control where 0% means no effect; about half of the hits show no inhibition at the top dose; a quarter of the inactives give rising signals
Target sequence (P00811 whole entry, looked up): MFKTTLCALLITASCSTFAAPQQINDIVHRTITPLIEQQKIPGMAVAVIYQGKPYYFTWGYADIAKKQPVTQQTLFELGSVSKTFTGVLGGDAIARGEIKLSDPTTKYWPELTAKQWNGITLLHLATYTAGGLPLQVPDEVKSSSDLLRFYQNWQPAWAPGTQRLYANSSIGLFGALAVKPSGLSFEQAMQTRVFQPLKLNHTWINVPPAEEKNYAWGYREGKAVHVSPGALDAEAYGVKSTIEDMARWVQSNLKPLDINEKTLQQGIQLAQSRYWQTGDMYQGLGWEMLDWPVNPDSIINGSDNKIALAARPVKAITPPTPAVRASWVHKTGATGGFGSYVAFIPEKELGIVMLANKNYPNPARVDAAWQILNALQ
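Enzyme, pH 7.0 phosphate. Compound titrations were pre-incubated with AmpC for 15 min at room temperature before nitrocefin (stock 800 uM) addition; product formation was recorded at 480 nm every 20 s for 4 min.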
An asterisk follows results filed as active; ? = inconclusive; [ ] = dose if it differs, or a comment. Potency is the fitted concentration of half-maximal effect. Not all compounds are listed. The share of hits here may be higher or lower than overall.

Molecule	AmpC nodet inh
CCn1c(SCC(=O)N2CC(=O)Nc3ccccc32)nnc1-c1ccoc1C	4%
CCOC(=O)C1CCCN(CCC(C)c2ccccc2)C1 (stereo unspecified)	3%
COc1ccc(Br)cc1CNC(=O)CCc1nc(-c2ccc(C)cc2)no1	?
CC1CCc2nc(N)c(C#N)c(-c3cccn3C)c2C1 (stereo unspecified)	-8%
CCCOC(=O)Nc1sc2c(c1C(=O)OCC)CCC2	-12%
CC(C)(C)c1cc(C(c2cccnc2)N2CCN(CCO)CC2)cc(C(C)(C)C)c1O (stereo unspecified)	88%
CCc1ccccc1NC(=O)c1cc2sccc2n1C	4%
CCOC(=O)c1sc(NC(=O)CSc2nnc3c4ccccc4n(CC)c3n2)nc1C	-1%

Other results follow.
Molecule	AmpC nodet inh
O=C1c2ccccc2C(=O)N1OCCOCCOCCON1C(=O)c2ccccc2C1=O	28%
CCOC(=O)c1cnc(-n2cc(C)cn2)nc1Nc1ccccc1OCC	69%
N#C/C(C(=O)Oc1ccccc1)=C1\C=CC=CN1	-6%
N[C@@H](CSC1(c2ccc(Cl)cc2)c2ccccc2-c2ccccc21)C(=O)O	30%[5.75 µM]
O=C(Cc1cccs1)Nc1cccc(C(=O)Nc2ccco2)c1	-12%
Clc1ccc(C2CC(c3ccco3)n3ncnc3N2)cc1Cl (stereo unspecified)	62%
CCC/C=C(\CCC)C(NS(=O)(=O)c1ccc(C(F)(F)F)cc1)c1ccccc1 (stereo unspecified)	-9%
COc1ccc(OC)c(C2N(c3ccccn3)C(=O)C3CCCN32)c1 (stereo unspecified)	4%

(cont.)
Molecule	AmpC nodet inh
CS(=O)(=O)Nc1cccc2cccnc12	0%
O=C(CSc1oc(-c2ccc(F)cc2)nc1S(=O)(=O)c1ccc(F)cc1)NCC1CCCO1 (stereo unspecified)	8%
FC(F)(F)c1cc(-c2cccs2)nc(N2CCOCC2)n1	0%
N#Cc1c(-c2ccco2)cc(-c2ccc(F)cc2)nc1N	3%
Cc1sc2c(c1C)C(c1cccs1)=NCC(=O)N2CC(=O)NCc1cccs1	12%
COc1cccc(C(=O)Nc2cnc(NC(=O)c3ccco3)cc2C)c1	4%
Cc1ccc(C(=O)O)cc1S(=O)(=O)N1CCSCC1	-8%
CCCCNc1nc(C)nc2c1nc(-c1ccccc1)n2C1CCN(Cc2ccccc2)C1 (stereo unspecified)	96%

Additional compounds follow.
Molecule	AmpC nodet inh
CCOC(=O)CSc1nc2c(sc(=S)n2CCc2ccccc2)c(=O)n1Cc1ccco1	-14%
CCOC(=O)c1c(C)c(C(=O)NCc2ccc3c(c2)OCO3)c(C)n1C	22%
O=S(=O)(NCc1ccccn1)c1ccc2c(c1)OCCO2	7%
COc1ccc(-c2cc(C(F)F)n3ncc(C(=O)NCC4CCCO4)c3n2)cc1 (stereo unspecified)	38%
COCC(=O)N1CCC2(CC1)CCN(c1cccc(-c3ccccc3)c1)CC2	157%
CN1CCCC2(CCN(C(=O)c3csnn3)CC2)C1	12%
Cc1cccn2cc(CNC(=O)c3ccco3)nc12	-12%
CCOC(=O)C1=C(C)N(CCO)C(=O)NC1c1ccccc1 (stereo unspecified)	12%

Remaining list, next part.
Molecule	AmpC nodet inh
C=CCn1c2ccccc2c2nnc(SCc3ccc4nonc4c3)nc21	0%
CCOC(=O)Nc1ccc2ncn(C)c(=O)c2c1	1%
C=CCNC(=O)C1CC(=O)N(c2ccc(OCC(=O)Nc3ccc(OC)cc3)cc2)C1 (stereo unspecified)	13%
O=C(c1ccc(Cl)cc1)C1CCN(C(=O)N2CCOCC2)CC1	39%
COc1cc(OC)c(C(=O)CCCN2CCCC2)c(OC)c1	-5%[12.8 µM]
Nc1ccc2c(c1)C(=O)c1ccccc1C2=O	-15%
O=C(Oc1ccc([N+](=O)[O-])cc1)N1CCC(N2CCCCC2)CC1	5%
c1csc(-c2cnc3n2CCCC3)c1	-22%

Next compounds.
Molecule	AmpC nodet inh
O=C(O)C1=C(C(=O)Nc2ccc(F)c(Cl)c2)CCCC1	7%
c1ccc2c(c1)nc1n2CCS1	-2%
Cc1cc(=O)oc2ccc(OC(=O)c3cccc(S(=O)(=O)N4CCOCC4)c3)cc12	80%
O=S(=O)(NC1CCCc2ccccc21)c1cnc[nH]1 (stereo unspecified)	-5%
COc1ccc(OC)c(NS(=O)(=O)c2ccc(NC(=O)C3COc4ccccc4O3)cc2)c1 (stereo unspecified)	10µM*
CCC(C)(C)NC(=O)C(c1cccnc1)N(CCOC)C(=O)Cn1nnc2ccccc21 (stereo unspecified)	16%
COCCNC(=O)CC(NS(=O)(=O)c1ccc(C)cc1)c1ccco1 (stereo unspecified)	-6%
COc1ccc(C2=CC(c3ccc(Cl)cc3)n3cnnc3N2)cc1OC (stereo unspecified)	154%

The results go on:
Molecule	AmpC nodet inh
O=S(=O)(c1ccc2c(c1)OCCO2)N1CCC(n2cnc3cc(F)ccc32)CC1	59%
Cc1ccccc1Cn1cnc2c(nnn2Cc2ccc(F)cc2)c1=O	-6%
COc1ccc(NC(=O)CN(C)S(=O)(=O)c2ccccc2)cc1OC	2%
O=S(=O)(NC1CC1)c1ccc(S(=O)(=O)N2CCc3ccccc32)cc1	-2%
Cc1ccc(OC(=O)CCc2c(C)nc3ncnn3c2C)cc1	28%
COC(=O)c1cccnc1-n1c(=O)c2cccnc2n(Cc2ccc(Cl)cc2)c1=O	90%
O=C(c1ccc(Cl)cc1)c1ccc(OCC(O)CN2CCOCC2)cc1 (stereo unspecified)	87%
COc1ccc(CNc2nc(-c3ccc(C(=O)N(C)C)cc3)nc3ccccc23)c(OC)c1	116%

Following part.
Molecule	AmpC nodet inh
COc1ccc(C2CC(c3ccc(Cl)cc3Cl)Nc3nc(N)nn32)cc1 (stereo unspecified)	120%
O=C(Cc1cccs1)Nc1ccc(S(=O)(=O)N2CCCCC2)cc1	13µM*[single pt active]
Cc1ccc(Cn2c(SCC(C)C)nc3c2c(=O)[nH]c(=O)n3C)cc1	17%
c1ccc(CN2CCN(CCCNc3ccc4nnc(-c5ccccc5)n4n3)CC2)cc1	120%
O=C1C(=C(O)c2ccccc2)C(=O)c2ccccc21	-6%
N#Cc1cccc(NC(=O)N2CCC(c3nc4c(nnn4Cc4cccc(Cl)c4)c(=O)[nH]3)CC2)c1	3%
Clc1ccc(-c2noc(CN3CCCC3)n2)cc1	22%
CC(C)=CCCC(C)N(C=O)C(C)CCC=C(C)C (stereo unspecified)	25%

Later entries:
Molecule	AmpC nodet inh
CN1C(=O)CCS(=O)(=O)[C@@H]1c1ccc(Cl)cc1	-6%[12.8 µM]
Cc1cc(Cl)c(OCCCn2cncn2)c(Br)c1	20%
O=C1c2ccccc2-c2c1cccc2C(=O)N1CCN(C(=O)c2ccco2)CC1	82%
O=S(=O)(Nc1ccc(Cl)c(C(F)(F)F)c1)c1cnc[nH]1	-9%
O=C(Nc1cccc2ncccc12)c1cccnc1	-5%
Cc1csc2ncc(C(=O)NCc3ccccn3)c(=O)n12	3%
COc1ccccc1CN1CC2(CCN(C(=O)c3cc(C(F)(F)F)cc(C(F)(F)F)c3)CC2)C1	39%
O=C(CCc1nc2ccccc2[nH]1)NC1CCCCC1	4µM*[single pt active]

(listing goes on)
Molecule	AmpC nodet inh
CCCn1nc(NC(=O)c2cccs2)c2cc3cc(OC)ccc3nc21	39%
CC(=O)NC(C1C(=O)CC(C)(C)CC1=O)(C(F)(F)F)C(F)(F)F	-3%
COC(=O)[C@@]1(Cc2ccccc2)[C@H]2c3cc(C(=O)N(C)C)n(Cc4ccc(S(C)(=O)=O)cc4)c3C[C@H]2CN1C(=O)c1ccccc1	161%
O=C(CSc1nc(-c2ccco2)cc(C(F)(F)F)n1)NC1CCCC1	1%
O=C(NC1CCCC1)C1CCCN(S(=O)(=O)c2cccc3cccnc23)C1 (stereo unspecified)	3.2µM*[single pt active]
Cc1ccc(Cn2c(=O)c3c(nc4n3CCN4Cc3ccco3)n(C)c2=O)cc1	80%
O=C(OCC(=O)N1CCCCC1)c1cc2ccccc2cc1O	30%
CCCCCCOC(=O)C1=C(C)NC(=O)NC1c1ccc(O)cc1 (stereo unspecified)	2%

The results go on:
Molecule	AmpC nodet inh
Cc1cc(C(=O)OCn2nnc3ccccc3c2=O)c(C)o1	14%
Cn1c(=O)n(C)c2cc(S(=O)(=O)NCCc3ccccc3)ccc21	-5%
O=C(NCc1ccco1)c1cc2n(n1)C(C(F)(F)F)CC(c1ccc(F)cc1)N2 (stereo unspecified)	17%
COc1ccc(-n2c(Cc3cc(=O)[nH]c(=O)[nH]3)nnc2SCC(=O)NC2CCCC2)cc1	4µM*[single pt active]
O/N=C(\COc1ccccc1O)c1ccccc1	-13%
Cn1c(=O)[nH]c(=O)c2c1nc(Br)n2CCCCSc1nc2ccccc2o1	73%
O=C(Nc1ccccc1C(=O)NCc1ccc(Cl)cc1)c1ccco1	-2%
CCCn1c(-c2ccc(F)cc2)nc2c(NCCN3CCCCC3)nc(C)nc21	24%

Later entries.
Molecule	AmpC nodet inh
CCC(C)OC(=O)C1=C(C)NC(=O)CC1c1ccccc1OC (stereo unspecified)	16%
O=C(O)CC/C=C\C[C@@H]1CO[C@H](c2ccccc2Cl)O[C@@H]1c1ccccc1O	27%
CC(C)C(NC(=O)c1ccco1)C(=O)NCC(c1ccco1)N1CCCCC1 (stereo unspecified)	5%
O=C1CCC(C(=O)Nc2cccc3ccccc23)N1 (stereo unspecified)	-10%
Cn1c(SCC(=O)N2CCCc3ccccc32)nnc1-c1c[nH]c2ccccc12	13%
CCN(CC)c1ccc(NC(=O)CCCCCN2C(=O)c3ccccc3C2=O)cc1	58%
CCSCC1COC(c2cccn2Cc2ccc(C)cc2)=N1 (stereo unspecified)	10%
O=C(CSc1nc2ncc(Br)cc2[nH]1)Nc1ccc2c(c1)OCO2	?

Later entries.
Molecule	AmpC nodet inh
CCOC(=O)CC(=O)Nc1nc2ccccc2s1	7%
COCCNc1nc(-c2ccc(C(=O)N(C)C)cc2)nc2ccccc12	29%
CCOc1c(N2CCCCC2)c(=O)c1=O	4%
Cc1ccc(NS(=O)(=O)c2cc(C(=O)N3CCN(C)CC3)ccc2C)cc1	0%
S=c1[nH]nc(-c2cccc(Br)c2)o1	-13%
CCOC(=O)CN1C(=O)CSc2ccccc21	-5%
O=C(Cn1nnc(-c2ccccc2-n2cnnn2)n1)NCc1ccccc1	12%
Cc1cc(Cl)ccc1OCCCC(=O)N1CCN(C(=O)c2ccco2)CC1	130%

Quoted from the entries so far (5 entries):
Molecule	AmpC nodet inh
Cc1ccc(NS(=O)(=O)c2cc(C(=O)N3CCN(C)CC3)ccc2C)cc1	0%
S=c1[nH]nc(-c2cccc(Br)c2)o1	-13%
CCOC(=O)CN1C(=O)CSc2ccccc21	-5%
O=C(Cn1nnc(-c2ccccc2-n2cnnn2)n1)NCc1ccccc1	12%
Cc1cc(Cl)ccc1OCCCC(=O)N1CCN(C(=O)c2ccco2)CC1	130%

Following part:
Molecule	AmpC nodet inh
Cc1cc2oc(=O)cc(CN3CCC(C)CC3)c2cc1Cl	18%
COCCNC(=O)c1snc2ccc(Cl)cc12	-5%
Cc1ccc(CCNC(=O)C2CCN(S(=O)(=O)N3CCC4(CC3)OCCO4)CC2)cc1	41%
CC(=O)N1CN2CN(C(C)=O)CC(C(=O)c3ccccc3)(C2)C1	-4%
COc1ccc(-c2noc(CCC(=O)NCC3CCN(Cc4cccc(C)c4)CC3)n2)cc1	74%
Nc1ncnc(Nc2ccccc2C(F)(F)F)n1	2%
CC12CC(c3ccccc3O1)C(C(=O)NCc1ccccc1)C(=O)N2 (stereo unspecified)	6%
O=C(CCN1C(=O)C2C3C=CC(C3)C2C1=O)NCCN1CCCc2ccccc21 (stereo unspecified)	52%

The list continues:
Molecule	AmpC nodet inh
Cc1ccc2c(CN3C(=O)NC(C)(c4ccc5c(c4)OCO5)C3=O)cc(=O)oc2c1 (stereo unspecified)	2%
Cc1cc(=O)n2[nH]c(C)c(-c3ccccc3)c2n1	-5%
Cn1c(=O)c(-c2ccccc2)nc2cnc(N3CCNCC3)nc21	35%
COC(=O)c1ccc(C(/C=C/[C@@H](C)C(=O)NCc2ccc(OC)c(O)c2)NC(=O)OCc2ccccc2)cc1 (stereo partly specified)	32%
CC(=O)c1ccc(OCC(O)CN(C)Cc2cccs2)cc1 (stereo unspecified)	5%
Cc1cc([N+](=O)[O-])c(C)c(Br)c1C	5%[5.75 µM]
COCCCNC(=O)Cn1cc(C(=O)C2CC2)c2ccccc21	1%
O=C(c1cnn2c(C(F)(F)F)cc(-c3ccc(Br)cc3)nc12)N1CCOCC1	-1%
Cc1ccc(/C=c2\sc3nc(-c4cccs4)nn3c2=O)o1	-10%

Gathered by group: the compounds so far with two or more sulfur atoms
Molecule	AmpC nodet inh
CCOC(=O)c1sc(NC(=O)CSc2nnc3c4ccccc4n(CC)c3n2)nc1C	-1%
O=C(CSc1oc(-c2ccc(F)cc2)nc1S(=O)(=O)c1ccc(F)cc1)NCC1CCCO1 (stereo unspecified)	8%
Cc1sc2c(c1C)C(c1cccs1)=NCC(=O)N2CC(=O)NCc1cccs1	12%
Cc1ccc(C(=O)O)cc1S(=O)(=O)N1CCSCC1	-8%
CCOC(=O)CSc1nc2c(sc(=S)n2CCc2ccccc2)c(=O)n1Cc1ccco1	-14%
O=S(=O)(NC1CC1)c1ccc(S(=O)(=O)N2CCc3ccccc32)cc1	-2%
O=C(Cc1cccs1)Nc1ccc(S(=O)(=O)N2CCCCC2)cc1	13µM*[single pt active]
Cc1ccc(/C=c2\sc3nc(-c4cccs4)nn3c2=O)o1	-10%
